Screens: PubChem BioAssay, National Center for Advancing Translational Sciences (NCATS)
VDR inh – Inhibitors of the vitamin D receptor (VDR): qHTS. Vitamin D3 receptor (Homo sapiens), P11473. VDR-SRC2-3 peptide fluorescence polarization, 2 h. Potency, µM, for inactives: max response, negative = inhibition, most hits filed as inhibitors. hit rate 0.93% among 400,000. AID 504847, 2011; active = well fitted inhibition curve with a large enough effect; inconclusive = small, poorly fitted or top-dose-only effect, or another doubt; inactive = no such curve, though single readings can be large or run the other way; note: series mostly up to about 120 µM
Target sequence (P11473 whole entry, looked up): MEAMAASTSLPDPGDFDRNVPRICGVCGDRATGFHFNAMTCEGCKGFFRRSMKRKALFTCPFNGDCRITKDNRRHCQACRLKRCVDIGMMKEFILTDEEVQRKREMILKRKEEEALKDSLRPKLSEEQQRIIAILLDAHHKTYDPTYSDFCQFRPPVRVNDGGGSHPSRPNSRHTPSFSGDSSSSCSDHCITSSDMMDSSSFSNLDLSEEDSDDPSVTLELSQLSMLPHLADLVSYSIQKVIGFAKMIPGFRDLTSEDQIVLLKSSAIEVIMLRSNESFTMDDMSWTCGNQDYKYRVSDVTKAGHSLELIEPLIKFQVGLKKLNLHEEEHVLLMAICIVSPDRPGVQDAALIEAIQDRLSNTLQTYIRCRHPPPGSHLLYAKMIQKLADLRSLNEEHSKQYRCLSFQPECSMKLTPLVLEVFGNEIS
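The screen uses fluorescence polarization to detect compounds that interfere with recruitment of the SRC2-3 coactivator peptide to VDR; plates are read after 2 h at room temperature.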
* marks the source's active call; other numbers are inactive results; ? = inconclusive; & = joins results of further samples. % is set by controls: 0 for no effect and ±100 for the full control effect; potency is the fitted concentration of half-maximal effect. A portion of the library; the hit share may differ from the screen's.

| VDR inh | Molecule |
| --- | --- |
| 11% | COc1ccc(CCNC(=O)c2c(Cl)ccc(Cl)c2OC)cc1OC |
| -15% | Cc1ccc(NC(=O)CN2CCN(CCN=CC3=C(O)CC(c4ccccc4)CC3=O)CC2)cc1 (stereo not given) |
| 1% | CCOCCOC(=O)c1[nH]c2c(c1C)C(=O)CC(c1cc(OC)c(OC)c(OC)c1)C2 (stereo not given) |
| -7% | Nc1nc(CSc2ncn[nH]2)nc(Nc2ccc(F)cc2)n1 |
| 3% | CS(=O)(=O)c1ccc(Cl)c(NC(=O)CCN2C(=O)NC3(CCCC3)C2=O)c1 |
| 1% | Cc1ccc(S(=O)(=O)N(CC(=O)Nc2ccc(C)cc2C)C(=O)N2CCN(C)CC2)cc1 |
| -6% | CNc1nnc(C(F)(F)F)s1 |
| -21% | COc1ccc2nc(N3CCCC3)c(C#N)cc2c1 |
| 1% | CCOc1cccc(Nc2nn(-c3ccc(OC(F)(F)F)cc3)nc2C(C)=O)c1 |
| 2% | Cc1nc2cc(C(=O)NCc3ccc4c(c3)OCO4)ccc2n1-c1ccc(Br)cc1 |

Later entries:
| VDR inh | Molecule |
| --- | --- |
| -4% | CCCOc1ccc2oc(=O)c3c(c2c1)CCCN3C(=O)CN1CCc2ccccc2C1 |
| 10% | O=c1c2cccnc2n(Cc2ccccc2F)c(=O)n1Cc1ccc(F)cc1 |
| 14% | CC(=O)N1CCc2c(sc3c2c(=O)n(-c2ccccc2Cl)c(=O)n3C)C1 |
| 1% | COc1ccc(C2=NOC(Cn3nc(C(=O)NCc4ccc5c(c4)OCO5)cc3-c3ccccc3)C2)cc1 (stereo not given) |
| 13% | Cc1ccccc1OCCn1cnc2c(N)ncnc21 |
| -1% | CC(=O)c1c(C)[nH]c(C(=O)Nc2ccc(Cl)cc2)c1C |
| 5% | Cc1ccc(S(=O)(=O)C2(C(=O)NCCc3ccccc3)CC2)cc1 |
| 11% | CC(C(=O)N1CCc2ccccc2C1)N(c1ccccc1)S(C)(=O)=O (stereo not given) |
| -10% | CN(C)c1ccc(CNc2ccccn2)cc1 |
| -4% | CC(=O)c1cccc(-n2nnnc2SCC(=O)Nc2ccccc2N2CCCCC2)c1 |

2 of the compounds above, as labelled records:
Cc1ccc(NC(=O)CN2CCN(CCN=CC3=C(O)CC(c4ccccc4)CC3=O)CC2)cc1 (stereo not given)
  VDR inh: -15%
CCOCCOC(=O)c1[nH]c2c(c1C)C(=O)CC(c1cc(OC)c(OC)c(OC)c1)C2 (stereo not given)
  VDR inh: 1%

Further entries.
| VDR inh | Molecule |
| --- | --- |
| -1% | COc1ccc2[nH]c3c(c2c1)CCN1C(=O)C(CC(=O)NCc2ccco2)C[C@H](C(=O)N2CCCCC2)[C@@]31C (stereo not given in full) |
| -1% | O=C(Nc1c(C(=O)N2CCOCC2)cnn1-c1ccccc1)c1ccccc1F |
| -6% | COc1ccc2[nH]c(O)c(N=NC(=N)N)c2c1 |
| -6% | Cc1nn(Cc2ccc(F)cc2)c(C)c1NC(=O)C1c2ccccc2Oc2ccccc21 |
| -13% | CC(C)c1ccc(CN2C(=O)c3ccccc3S2(=O)=O)cc1 |
| -12% | O=C(Cn1c(=S)[nH]c2ccccc2c1=O)NCCc1ccccc1 |
| -3% | N#CC(c1ccc([N+](=O)[O-])cc1)C(CC(=O)c1ccccc1)c1ccccc1 (stereo not given) |
| -7% | Cc1onc(-c2ccccc2Cl)c1C(=O)N(Cc1ccc(N(C)C)cc1)C(C)C |
| -6% | Cc1oc(-c2ccccc2Cl)nc1CS(=O)CC(=O)NCc1ccco1 (stereo not given) |
| -16% | CCOCCCN(C(=O)Nc1ccc(CC)cc1)C1CCN(C(C)=O)CC1 |

The results go on.
| VDR inh | Molecule |
| --- | --- |
| 2% | COc1ccc(S(=O)(=O)Nc2cc(C)on2)cc1OC |
| 3% | Cn1c2ccccc2c(=O)c2c(=O)n(Cc3ccccc3)c(-c3ccc(F)cc3)nc21 |
| -10% | CCOC(=O)COc1cc([N+](=O)[O-])cc2cccnc12 |
| -5% | O=C(CSc1ccc(-c2ccco2)nn1)NC1CCCC1 |
| -2% | COc1ccc(-c2nc(SCC(=O)NC3CCCC3)c(-c3ccc(C)cc3)[nH]2)cc1OC |
| -5% | CC(C)OC(=O)c1cccnc1N1CCN(c2ccc(F)cc2)CC1 |
| -1% | O=C1N[C@H](Cc2ccccc2)C(=O)N[C@H]1Cc1cn(S(=O)(=O)c2ccccc2)c2ccccc12 |
| 10µM* | Nc1ccccc1SSc1ccccc1N |
| -9% | CCCCn1c(C(C)NC(=O)CC)nc2ccccc21 (stereo not given) |
| 17% | CCOc1ccccc1NC(=O)c1cc2cc(C)ccc2n1C |

Following part:
| VDR inh | Molecule |
| --- | --- |
| -18% | COc1ccccc1NC(=O)C1CCCN(C(=O)Nc2ccc(F)cc2)C1 (stereo not given) |
| 2% | Cc1cc(C)cc(N(CCC(=O)Nc2nnc(C)s2)S(=O)(=O)c2ccc(Cl)cc2)c1 |
| -3% | COC(=O)c1cc(S(=O)(=O)N2CCN(c3ccccc3)CC2)c[nH]1 |
| -12% | CSCC[C@H](NC(=O)C1CCN(C(=O)[C@H](Cc2ccccc2)NS(=O)(=O)c2ccc(C)cc2)CC1)C(=O)O |
| 3% | O=S(=O)(c1ccccc1)N1CCN(c2nnnn2-c2ccccc2)CC1 |
| 11% | CCOC(=O)Nc1cccc(OCC(=O)Nc2ccc(OC)cc2OC)c1 |
| -4% | CCN(CC)S(=O)(=O)c1ccc(C(=O)Nc2nc3c(Cl)cc(Cl)cc3s2)cc1 |
| 11% | O=C(Nc1ccc(N2CCN(C(=O)c3ccccc3F)CC2)cc1)c1cncc(Br)c1 |
| -1%&-18% | NC(=O)c1ccccc1Br |
| 2% | O=C(Nc1ccccc1)NC1CCCCNC1=O (stereo not given) |

Quoted from the listing:
VDR inh, CSCC[C@H](NC(=O)C1CCN(C(=O)[C@H](Cc2ccccc2)NS(=O)(=O)c2ccc(C)cc2)CC1)C(=O)O : -12%
VDR inh, O=S(=O)(c1ccccc1)N1CCN(c2nnnn2-c2ccccc2)CC1 : 3%
VDR inh, Cc1cc(C)cc(N(CCC(=O)Nc2nnc(C)s2)S(=O)(=O)c2ccc(Cl)cc2)c1 : 2%
VDR inh, COC(=O)c1cc(S(=O)(=O)N2CCN(c3ccccc3)CC2)c[nH]1 : -3%

More results:
| VDR inh | Molecule |
| --- | --- |
| -14% | O=C(NCCCNC(=O)c1cc(Cl)ccc1Cl)c1ccccn1 |
| -7% | Cc1oc2cc3c(C(=O)N4CCCCC4)c(C)oc3cc2c1C(=O)N1CCCCC1 |
| 9% | CS(=O)(=O)c1ccc(-c2nnc(NC(=O)c3cccc(N4C(=O)CCC4=O)c3)o2)cc1 |
| 13µM* | O=C1C=CC(=O)N1N(c1ccccc1)c1ccccc1 |
| 9% | CCN(CC)C(=O)CN1CCN(c2ccccc2F)CC1 |
| 7% | COc1ccc(N(C(=O)c2snc(C(N)=O)c2N)C(C(=O)NC2CCCC2)c2cc(OC)ccc2OC)c(OC)c1 (stereo not given) |
| -10% | CC(=O)c1ccc(NC(=O)c2ccc3c(c2)C(=O)N(c2ccccn2)C3=O)cc1 |
| -11% | Cc1ccc(C)c(Nc2c([N+](=O)[O-])c(=O)oc3ccccc23)c1 |
| -5% | O=C(CCc1nnc(-c2ccsc2)o1)N1CCc2c(Cl)cccc2C1 |
| -2% | Cc1ccc(CNC(=O)C2CCN(C(=O)Nc3ccccc3)CC2)cc1 |

The listing continues.
| VDR inh | Molecule |
| --- | --- |
| -10% | COC(=O)C1CCN(c2ccc([N+](=O)[O-])cc2)CC1 |
| 0% | C=CCNC(=O)Cn1nnc(-c2ccc(-c3ccc(OC)cc3)cc2)n1 |
| ? | COc1ccc2c(c1)CC/C(=C/c1ccncc1)C2=O |
| 1% | Cc1cc2ccccn2c1C(=O)c1nc(NCc2ccco2)ncc1Cl |
| 14% | CC(OC(=O)c1cccc(S(=O)(=O)N2CCOCC2)c1)C(=O)NC1CCCCC1C (stereo not given) |
| 2% | CCOc1c(Cl)cc(C(=O)Nc2ccccc2-c2ccccc2)cc1Cl |
| -17% | COC(=O)c1ccc(-c2ncc(-c3cccc4ccccc34)o2)cc1 |
| -89% | CCOc1ccc(/C=N/n2c(C)nc3ccccc3c2=O)cc1 |
| -12% | O=C(Nc1ccc([N+](=O)[O-])cc1Cl)c1cc(Cl)cc(Cl)c1O |
| 11% | O=C(Nc1nccs1)c1ccc(S(=O)(=O)NCc2cccs2)cc1 |

(next part)
| VDR inh | Molecule |
| --- | --- |
| -11% | N#Cc1nc(-c2cccc(Cl)c2)oc1N1CCC(C(N)=O)CC1 |
| 1% | Cc1cccc(Nc2nc3c(c(=O)n(C)c(=O)n3C)n2CC(O)CO)c1 (stereo not given) |
| 0% | Cc1ccc(C2CCN(C(=O)Nc3ccc(C)c(C)c3)C2)cc1 (stereo not given) |
| -2% | C=CCn1c(NCc2ccccc2O)nc2ccccc21 |
| 6% | C/C(=N\Nc1ccc([N+](=O)[O-])cc1[N+](=O)[O-])c1ccc(-n2nncc2C(C)(C)C)cc1 |
| 4% | CN(c1ccc(OCc2ccc([N+](=O)[O-])cc2)cc1)S(=O)(=O)c1ccccc1 |
| -22% | CCC1(C)Cc2ccccc2C(=O)N1 (stereo not given) |
| -13% | N#Cc1ccccc1OCC(=O)OCC(=O)c1ccc[nH]1 |
| 10% | Cc1nn(C)cc1CNC(=O)CCC(=O)O |
| -7% | CS(=O)c1ccccc1COC(=O)Nc1ccccc1 (stereo not given) |

4 structures out of the list, arranged by SMILES length, smallest number first:
| VDR inh | Molecule |
| --- | --- |
| -22% | CCC1(C)Cc2ccccc2C(=O)N1 (stereo not given) |
| -2% | C=CCn1c(NCc2ccccc2O)nc2ccccc21 |
| 4% | CN(c1ccc(OCc2ccc([N+](=O)[O-])cc2)cc1)S(=O)(=O)c1ccccc1 |
| 6% | C/C(=N\Nc1ccc([N+](=O)[O-])cc1[N+](=O)[O-])c1ccc(-n2nncc2C(C)(C)C)cc1 |

Going on with the list:
| VDR inh | Molecule |
| --- | --- |
| 12% | O=C(O)COc1ccc(OCCNC[C@@H](O)COc2ccccc2)cc1 |
| -19% | O=S(=O)(Nc1ccncc1)c1ccc(Cl)c(Cl)c1 |
| -7% | CCOC(=O)c1ccc(NS(=O)(=O)c2ccc3c(c2)CCCN3C(C)=O)cc1 |
| 2% | O=C(CC1(O)C(=O)N(Cc2ccccc2)c2ccccc21)c1ccc2c(c1)OCO2 (stereo not given) |
| 4% | Cc1ccc(-n2nc3cc(C)c(NC(=O)COc4ccccc4)cc3n2)cc1 |
| -5% | COCCn1c(-c2cc(OC)c(OC)c(OC)c2)nc2oc3cc(OC)ccc3c(=O)c2c1=O |
| -6% | COc1ccc(CCC(=O)Nc2ccc(N3CCOCC3)c(S(=O)(=O)Nc3ccc(OC)cc3)c2)cc1 |
| -18% | COc1cccc(CNC(=O)CCc2nnc3ccc(NCCCN4CCCC4=O)nn23)c1 |
| -1% | CCOC(=O)N1CCN(C(=O)C(C)SCc2ccccc2)CC1 (stereo not given) |
| 6% | Clc1ccccc1N=Nc1ccccn1 |

Later entries
| VDR inh | Molecule |
| --- | --- |
| 6% | c1ccc2c(Oc3ccc4c(c3)OCO4)nncc2c1 |
| 4%&-20% | COc1ccc(NC(=O)Nc2cccc(C)n2)c(OC)c1 |
| 5%&0% | CCCc1cc(=O)n2[nH]c(NCc3c(F)cccc3Cl)nc2n1 |
| -6% | CCCCOC(=O)C1=C(C)NC2(O)c3ccccc3C(=O)C12O (stereo not given) |
| -6% | CCc1ccc(OC(C)C(=O)N(Cc2ccco2)C2CCS(=O)(=O)C2)cc1 (stereo not given) |
| 4% | CCN(CC)C(=O)c1sc2c(c1C)c(=O)n(CCc1ccccc1)c(=O)n2Cc1ccc(C)cc1 |
| -4% | CC(C)CC(=O)NC(=S)N1CCCCCC1 |
| 5% | CCCCn1nnnc1SCC(=O)Nc1ccc(F)cc1 |
| 7% | O=C(CC(=O)NCCc1ccccc1)NCCc1ccccc1 |
| -12% | Cc1oc2c(Cl)c(Cl)c(O)c(CN(C)C)c2c1C(=O)c1ccc(Cl)cc1 |

Looked up one by one from the list above:
| VDR inh | Molecule |
| --- | --- |
| 2% | Cc1nc2cc(C(=O)NCc3ccc4c(c3)OCO4)ccc2n1-c1ccc(Br)cc1 |
| 10% | O=c1c2cccnc2n(Cc2ccccc2F)c(=O)n1Cc1ccc(F)cc1 |
| 14% | CC(OC(=O)c1cccc(S(=O)(=O)N2CCOCC2)c1)C(=O)NC1CCCCC1C (stereo not given) |
| 1% | Cc1ccc(S(=O)(=O)N(CC(=O)Nc2ccc(C)cc2C)C(=O)N2CCN(C)CC2)cc1 |
| -1% | COc1ccc2[nH]c3c(c2c1)CCN1C(=O)C(CC(=O)NCc2ccco2)C[C@H](C(=O)N2CCCCC2)[C@@]31C (stereo not given in full) |

Further structures:
| VDR inh | Molecule |
| --- | --- |
| -7% | c1cncc(-c2nc(N3CCNCC3)c3ccccc3n2)c1 |
| 0%&-13% | COc1ccccc1Nc1cc(C(=O)NC2CCCC2)c2ccccc2n1 |
| 7% | COC(=O)C1CCC(C)(C(=O)Nc2ccccc2)C1(C)C (stereo not given) |
| -1% | C=CC1C(OC2OC(CO)C(O)C(O)C2O)OC=C(C(=O)OC)C1CC1CC(=O)CC(CC(=O)CCc2ccc(O)cc2)O1 (stereo not given) |
